Bioassay records: PubChem, ICCB-Longwood Screening Facility, Harvard Medical School
RVFV N-RNA inh – inhibitors of Rift Valley Fever Virus nucleocapsid-RNA interaction. P21700. RVFV N-RNA binding, fluorescence polarization; active compounds read low. % bound, % (test concentration not listed). 20,000 tested, 0.1% active;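 active = between 0 and 58% in either replicate with normal brightness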;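 also: 100 nL library stock added to about 12 µL; 100% = protein and probe without compound and 0% = probe alone; numbers are from one replicate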
Target sequence (P21700 whole entry, looked up): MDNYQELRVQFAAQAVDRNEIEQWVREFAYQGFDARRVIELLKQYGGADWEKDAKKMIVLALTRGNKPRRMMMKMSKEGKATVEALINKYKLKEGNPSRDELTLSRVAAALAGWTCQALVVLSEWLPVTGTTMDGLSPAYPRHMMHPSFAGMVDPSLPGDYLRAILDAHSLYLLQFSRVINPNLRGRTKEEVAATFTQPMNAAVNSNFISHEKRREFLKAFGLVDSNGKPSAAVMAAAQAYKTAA
* marks the source's active call; other numbers are inactive results; & = joins results of further samples. A portion of the library (hit frequency here may not be typical).

Start of the data: the first 3 records, ahead of the listing:
Structure,RVFV N-RNA inh
CC(C)NC(=O)NNc1c(Cl)cccc1Cl,97.6
Cc1cc(C(=O)/C(C#N)=N/Nc2cccc(Cl)c2)n(C(C)(C)C)n1,90.2
COc1cccc(-c2nnc(NC(=O)c3ccc(S(=O)(=O)N(Cc4ccccc4)C(C)C)cc3)o2)c1,97.3

The list itself, from the start:
Structure,RVFV N-RNA inh
CC(C)NC(=O)NNc1c(Cl)cccc1Cl,97.6
Cc1cc(C(=O)/C(C#N)=N/Nc2cccc(Cl)c2)n(C(C)(C)C)n1,90.2
COc1cccc(-c2nnc(NC(=O)c3ccc(S(=O)(=O)N(Cc4ccccc4)C(C)C)cc3)o2)c1,97.3
CCOC(=O)/C(C)=N/Nc1ccc(OC(F)(F)F)cc1,81.7
CN(Cc1nc(-c2ccccc2)no1)C(=O)CC1CCCCC1,96.4
CN(C)CCC(c1ccccc1)c1ccccn1 (stereo not given),94.4
O=C(Nc1ccccc1)N1CCn2cccc2C1c1ccccc1 (stereo not given),100.1
c1ccc2c(c1)COC(CN1CCOCC1)OC2,98.9
CC(C)=NOC(=O)c1ccc(CSc2ccc(C(F)(F)F)cn2)o1,92.6
C#CCOC(=O)Nc1cnc(N2CCOCC2)c(C(F)(F)F)c1,92.2
CCOC(=O)CSc1nc(=O)cc(N)n1CCc1ccccc1,79.8
CC1=CS/C(=C(/C#N)C(=O)N2CCCCC2)N1c1ccccc1,99.8
O=C1CC(c2ccco2)CC(O)=C1C=NCC1CCNCC1 (stereo not given),100.5
Cc1cc(C)cc(C(=O)Nc2cc(C)c3c(=O)oc4ccccc4c3n2)c1,99.2
CCN(CC)C(=O)COc1coc(CN2CCN(c3ccccc3)CC2)cc1=O,94.6
C=CCn1c(SCC(=O)c2ccc(OC)cc2)nnc1-c1cccs1,100.5
CCn1c(=O)cc(Nc2ccc(C)c(C)c2)[nH]c1=O,104.6
C=CCn1c(CC(C)(C)C)nc2ccccc21,97.1
O=C(O)CN(CC(=O)Nc1ccc2c(c1)OCCCO2)Cc1ccccc1,94.8
OCC(O)CN=Cc1c(O)[nH]c2ccccc12 (stereo not given),92.3
C(=N\NC1=NCCCCC1)/c1ccc(N2CCOCC2)cc1,103.5
Cc1ccc(C)c(-n2c(Cc3cc(=O)[nH]c(=O)[nH]3)nnc2SCC(=O)Nc2nnc(C)s2)c1,92.2
O=C(NCCSc1ccc(Cl)cc1)c1ccco1,102.4
CCN(CC)C(=O)c1c(NC(=O)c2ccco2)sc2c1CCCCC2,94.2
Cc1cc(C(=O)NCCC2=CCCCC2)c(C)o1,96.6
Cc1ccn(C(=O)c2ccc(Br)cc2)n1,92.5
CCCCn1c(CCNC=O)nc2ccccc21,97.9
N#C/C(=C/c1cn(CC(=O)O)c2ccccc12)c1ccc(C(=O)O)cc1,91.3
Nc1c(C(=O)Nc2ccccc2)nnn1Cc1ccccc1,97.0
O=C(NCc1ccc(-c2nc3ccccc3o2)cc1)c1ccccc1Br,98.1
CCCN(CCC)[C@H]1CCc2c(F)ccc(O)c2C1,92.1
CCN(CC)C(=S)Nc1ccc(OC)cc1,91.3
CC(=O)Nc1cc(C(F)(F)F)ccc1N1CCOCC1,112.2
CC(C)c1ccc(/C=C/C(=O)O)cc1,95.3
O=C(CN1CCN(C2c3ccccc3-c3ccccc32)CC1)c1ccc2c(c1)OCO2,99.3
Cc1cc(C(F)(F)F)n[nH]1,91.8
Cc1ccc(S(=O)(=O)c2cnc3ccccc3c2N2CCC3(CC2)OCCO3)cc1C,96.3
c1ccc(C2NCCc3[nH]cnc32)cc1 (stereo not given),90.8
C#CCOC(=O)Nc1ccc(OC)nc1,101.7
CSC(=NC(C)(C)C)N/N=C/c1cc(Cl)cc(Cl)c1O,97.9
FC(F)(F)c1c(-c2nc(-c3ccc(Cl)cc3)no2)cnn1-c1ccccc1,93.0
CCOC(=O)c1c(C)[nH]c(/C=C2\C(=O)Nc3ccccc32)c1C,12.2*
O=c1c(C=NCc2ccc3c(c2)OCO3)c(O)n(C2CCCCC2)c(=O)n1C1CCCCC1,101.2
CN(C/C=C/C#CC(C)(C)C)Cc1cccc2ccccc12,97.6&95.9
COc1ccccc1CN1CCCC1,85.2
COc1cc2ncnc(N3CCN(C(=O)Nc4ccc(Oc5ccccc5)cc4)CC3)c2cc1OC,94.7
O=C1CC(NS(=O)(=O)c2ccccc2)CN1c1ccc2c(c1)OCCO2 (stereo not given),99.3
O=S(=O)(NCCN1CCOCC1)c1ccc(I)cc1,94.4
Oc1cccc(CN2CCN(Cc3ccccc3)CC2)c1,92.9
CCOC(OCC)c1ccc(C=C(C#N)C#N)cc1,90.8

More structures
Structure,RVFV N-RNA inh
CN(C(=O)c1cc2cccnc2n(C)c1=O)c1ccccc1,93.7
O=C(c1ccncc1)C12CN3CN(CN(C3)C1)C2,94.8
N#CC(C#N)=CNCCc1ccncc1,95.1
CC12CC3(C)CC(C)(C1)CC(C(=O)NCC(=O)O)(C2)C3,93.1
COC(=O)Nc1sc(Cc2ccccc2)cc1C(N)=O,98.1
CNC(=O)c1ccccc1-c1nc(-c2ccccc2OC)no1,91.7
Cc1cc(C)n(C(=O)N2CCOCC2)n1,97.8
CCOc1nc(Nc2ccccc2)nc(Nc2ccccc2)n1,91.4
CC1SC2(NC1=O)C1CC3CC(C1)CC2C3 (stereo not given),90.1
CCCc1c(C)c(C#N)c2nc3ccccc3n2c1NCCCn1ccnc1,95.9
CCc1ccc(S(=O)(=O)Nc2ccc(-c3nc4cccnc4s3)cc2)s1,96.0
Cc1[nH]n(-c2ccc(Br)cc2)c(=O)c1C1=c2ccccc2=NC1=O,95.7
Oc1cccc2ccc(Oc3cccc4cccnc34)nc12,104.3
Cc1cccc(N2CCN(C(=O)CCCC(=O)N3CCN(c4cccc(C)c4C)CC3)CC2)c1C,95.8
O=C(Cc1cccs1)N1CCN=C1SCc1ccccc1,95.8
O=C(OCc1ccc(F)cc1F)c1ccc(F)cc1,97.3
CCSC1=C(C#N)C(c2ccccc2)CC(=O)N1 (stereo not given),96.4
CC(C)C(NC(=O)c1ccc(NS(C)(=O)=O)cc1)C(C)C,99.4
O=C(O)CCNC(=S)Nc1ccc(Cl)cc1,92.2
O=C(CSc1nnc(NC(=O)C23CC4CC(CC(C4)C2)C3)s1)Nc1nccs1,93.4
COc1ccc(Cc2nnc(Nc3c(C)cccc3C)o2)cc1OC,96.0
Cn1c(=S)sc2ccccc21,93.8
O=C(NCc1ccccc1)N1CCn2cccc2C1c1ccccc1 (stereo not given),97.3
Cc1ccc(-n2nc3c(c2NC(=O)c2ccccc2)CSC3)cc1,99.5
COC(=O)Nc1scc2c1c(=O)oc1ccccc12,92.9
OC1CCOc2ccccc21 (stereo not given),95.1
Ic1ccc2c(-c3ccccc3)onc2c1,98.7
CN(C)CCOC(c1ccc(Cl)cc1)c1ccccn1 (stereo not given),100.4
CCCCOc1ccc(C(C)(C#N)CC#N)cc1 (stereo not given),101.6
CN1CCc2c(OCc3ccc(Cl)cc3)cccc2C1=O,101.8
COc1c(Cl)cc(CO)cc1Cl,96.7
CCOc1ccc(-n2c(SCC)nc3c(c2=O)SCC3)cc1,99.7
C=CCn1c(CC(C)C)nnc1SCC(=O)Nc1ccc(OC)cc1,84.7
N#Cc1cccnc1NNC(=O)Nc1ccc(OCc2ccccc2)cc1,89.2
CN1C[C@H](C(=O)N[C@]2(C)O[C@@]3(O)[C@@H]4CCCN4C(=O)[C@H](Cc4ccccc4)N3C2=O)C=C2c3cccc4[nH]cc(c34)C[C@H]21,87.9
N#Cc1c(-n2cccc2/C=N/NC(N)=S)sc2c1CCCC2,99.3
CS(=O)(=O)c1cccc(S(=O)(=O)NCc2cccnc2)c1,110.4
COCCSc1ccccc1C(=O)N1CCOCC1,98.2
COc1ccc(NC(=O)C(Cc2ccccc2)NC(=O)c2ccco2)cc1OC (stereo not given),94.1
N#Cc1c(NC(=O)CSc2ncccn2)sc2c1CCCC2,94.3
N#Cc1c(NC(=O)NCc2ccco2)sc2c1CCC2,89.3
CCN(CC(=O)N1CCc2ccccc2C1)S(=O)(=O)c1ccc(OC)cc1,100.2
Cc1ccc(C(=O)/C=C/Sc2nccc(C)n2)cc1,97.2
COc1ccc(OC)c2sc(NC(=O)c3ccc4ncsc4c3)nc12,92.7
CNC(=O)CC1C(=O)N(C)C(=S)N1NC(=O)c1ccc(Cl)cc1 (stereo not given),101.2
CNC(=O)c1cc(Cl)ccc1OC,93.5
N#CC(C#N)=Cc1sccc1Br,90.3
C[C@H]1COc2c(C3(N)CC3)c(F)cc3c(=O)c(C(=O)O)cn1c23,92.8&100.4&99.0
Cc1onc(-c2ccccc2)c1C(=O)NNc1ccc(C(C)(C)C)cc1,88.2
Cc1nn(C)c(C)c1NC(=S)Nc1ccc(S(=O)(=O)Nc2ncccn2)cc1,96.5

Additional results follow.
Structure,RVFV N-RNA inh
O=C(CSc1nc2ccccc2o1)N1N=CCC1c1ccccc1 (stereo not given),98.7
O=C(CCC(=O)Nc1nc(-c2cc3ccccc3oc2=O)cs1)NCc1ccco1,94.9
CN1CCN(C(=O)C2CCCN(S(=O)(=O)c3ccc(Br)cc3)C2)CC1 (stereo not given),95.0
CN(CC1CCCO1)S(=O)(=O)c1ccc(C(=O)Nc2sccc2C(N)=O)cc1 (stereo not given),94.1
CC(C)(C)CNC(=S)NN,94.1
CN(C/C(O)=C(\C#N)c1nc2ccccc2s1)C1CCCCC1,98.1
CCCCNc1ccc2nnc(CCNC(=O)c3ccccc3)n2n1,92.3
CN(C)c1ccc(C2Nc3ccccc3C(=O)N2CCN2CCNC2=O)cc1 (stereo not given),108.7
CC1O[C@]2(C)OC1[C@]1(C)OC(C)[C@H]2O1 (stereo not given in full),108.7
O=C(N/N=C/c1ccc(O)cc1)c1ccccc1,93.1
Cc1cc(NC(=O)C2Cc3ccccc3C(=O)O2)no1 (stereo not given),98.2
N#CN=C1CCCCCN1CC(N)=O,97.5
CN(C)S(=O)(=O)c1ccc(NC(=O)C2CCCCC2)cc1,97.9
CCc1c(C)sc(NC(=S)N2CCN(S(C)(=O)=O)CC2)c1C(=O)OC,98.3
CCCC(C)C(=O)N1CCCCC1CC (stereo not given),96.1
CCOc1ccc2c(=O)c(Oc3ccccc3)c(C)oc2c1C,88.6
CCOC(=O)C1=C(N)Oc2ccc(Cl)cc2C1C(C#N)C(=O)OCC (stereo not given),93.5
Cn1cnc([N+](=O)[O-])c1Sc1ncnc2nc[nH]c12,84.6&93.5
CCn1c(NC(=O)c2ccccc2)nc2ccccc21,98.0
O=C(CSc1nccc(-c2cccnc2)n1)Nc1ccccc1,97.3
CC1CCN(CC[C@H]2CCCN2S(=O)(=O)c2cccc(O)c2)CC1,100.3
CC(C)(C)NCC(O)COc1nsnc1N1CCOCC1 (stereo not given),101.8
COCCn1c(C)cc(C(=O)CSc2nnc(C)s2)c1C,91.5
FC(F)(F)c1ccc(N2CCCCCC2)nc1,100.4
c1ccc2c3c([nH]c2c1)-c1ccsc1CC3,95.7
CCOC(=O)COc1ccc(C#N)cc1,96.4
CS(=O)(=O)Nc1ccccc1C(=O)Nc1ccc2c(c1)OCCO2,91.3
CC(=O)Nc1ccc(CSc2ccccc2)cc1,98.1
CN1CCc2c(OCC(=O)N3CCCc4ccccc43)cccc2C1=O,97.1
C=CCn1c(CSc2ccc(C)cc2)n[nH]c1=S,97.1
C(=N\OCc1nnc(-c2ccc3ccccc3c2)o1)/c1cccc2c1OCO2,96.1
Cc1ccc(S(=O)(=O)N(C)CC(=O)Nc2ccccc2C(F)(F)F)cc1,97.7
CSC(=S)NNC1=NCCC1,93.8
CCn1cnc2c(Nc3cccc(Cl)c3)nc(N[C@@H]3CCCC[C@@H]3N)nc21,107.7&91.3
Oc1cc(O)c2c(c1)O[C@H](c1ccc(O)c(O)c1)[C@@H](O)C2,94.9
Cc1cc(NC(=O)c2ccc(N3C(=O)CCC3=O)cc2)nc2c1c(=O)oc1ccccc12,98.5
S=c1nc(-c2ccccc2)n(CC2CCCO2)c2c1CCCC2 (stereo not given),97.0
CC(NC(=O)c1ccco1)C1CCCO1 (stereo not given),91.0
O=c1[nH]cnc2c1c(-c1ccccc1)cn2-c1ccccc1,96.0
Cn1/c(=N\NC(=O)C2CCCCC2)sc2ccccc21,93.7
CCCCCCC(=O)OC1CC(C)(C)NC(C)(C)C1,108.3
Cc1c(C(=O)/C=C/N(C)C)sc2ccccc12,98.7
CC(C)(C)CC(C)(C)NCc1ccccc1OCC(N)=O,94.9
CCCN(CCC)C(=O)c1cc(-c2ccc3c(c2)OCO3)nc2ccccc12,94.7
COc1ccc(S(=O)(=O)N2CCN(C(=S)NC3CCCCC3)CC2)cc1,97.7
CCOC(=O)c1c(NC(=S)Nn2cnnc2)sc2c1CCCCCC2,85.5
CCCCC(=O)Nc1ccc(C(=O)NCc2cccnc2)cc1,100.8
C=CCOc1ccc(C(=O)NCC)cc1,91.3
O=C(C1CCCO1)N1CCN(C(=S)NCc2ccc(F)cc2)CC1 (stereo not given),95.7
NNC(=O)Cc1csc(CC(N)=O)n1,93.1

5 neighbouring entries already listed:
Structure,RVFV N-RNA inh
CC(C)NC(=O)NNc1c(Cl)cccc1Cl,97.6
Cc1cc(C(=O)/C(C#N)=N/Nc2cccc(Cl)c2)n(C(C)(C)C)n1,90.2
COc1cccc(-c2nnc(NC(=O)c3ccc(S(=O)(=O)N(Cc4ccccc4)C(C)C)cc3)o2)c1,97.3
CCOC(=O)/C(C)=N/Nc1ccc(OC(F)(F)F)cc1,81.7
CN(Cc1nc(-c2ccccc2)no1)C(=O)CC1CCCCC1,96.4
